OX1R antag: human HCRTR1 antagonism. CHO/OX1R cells, Fluo-8 calcium fluorescence, orexin A. inhibition, % at 5 µM. 0.43% of 330,000 active. AID 434989;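 active = inhibition above its plate's threshold, mean inhibition of all tested compounds on the plate plus 3 SD, cut at about 37% in these data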;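 also: 0% = orexin A challenge wells and 100% = SB-334867-A antagonist wells; not every result past the cut was called active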
Target sequence (O43613 whole entry, looked up): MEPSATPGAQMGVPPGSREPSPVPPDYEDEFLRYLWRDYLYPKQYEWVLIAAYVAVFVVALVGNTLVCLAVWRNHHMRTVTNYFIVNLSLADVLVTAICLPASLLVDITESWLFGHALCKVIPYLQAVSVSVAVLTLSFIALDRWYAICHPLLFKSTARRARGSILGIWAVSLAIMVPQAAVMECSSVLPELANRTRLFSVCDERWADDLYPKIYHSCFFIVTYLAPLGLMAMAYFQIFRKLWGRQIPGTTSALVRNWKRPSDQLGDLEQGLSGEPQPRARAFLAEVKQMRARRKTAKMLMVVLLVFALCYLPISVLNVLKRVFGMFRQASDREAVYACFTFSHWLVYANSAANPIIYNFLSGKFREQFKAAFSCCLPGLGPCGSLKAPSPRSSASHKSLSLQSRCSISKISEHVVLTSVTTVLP
The depositor's hits bear a star.

SMILES	OX1R antag
O=C1CCCCN1CCC(=O)N1CCCC(Nc2ccccc2)C1 (configuration not stated)	-9.2
CC1CCc2c(C(=O)N3CCN(S(=O)(=O)c4cccs4)CC3)csc2C1 (configuration not stated)	-13.8
CC(C)(C)OC(=O)NCCCCCc1nnc(SCc2ccccc2)o1	-14.8
COc1ccc(S(=O)(=O)NCCC(=O)NCc2ccc(F)cc2)cc1	-24.4
N#CCSc1ncnc2sc3c(c12)CCC3	-7.8
Cn1c(SCc2ccccc2)nnc1-c1ccc2nonc2c1	-29.4
O=C(CN1CCN(c2ccc(O)cc2)CC1)Nc1ccc(SC(F)F)cc1	6.2
CN(C)c1ccc(/C=N/N2C(=S)SC(C)(C)C2N(O)C(=O)Nc2ccc([N+](=O)[O-])cc2)cc1 (configuration not stated)	-7.6
COc1ccc(C(=O)Nc2ccnn2C2CCN(Cc3ccc4nonc4c3)CC2)cc1	-18.7
O=C(Oc1ccc2c(c1)OCC2=O)c1ccc(Cl)cc1	-16.7
CC1(C)c2ccccc2N2CC(=O)N(CC(N)=O)C21C (configuration not stated)	-0.1
CCCc1cc(=O)oc2cc(C)cc(OCC(=O)NCc3cccnc3)c12	-26.3
O=C(NCCC1CCCCN1S(=O)(=O)c1ccc(F)cc1)C(=O)NCC1CCCO1 (configuration not stated)	-17.1
COc1ccc(NC(=O)c2ccc3nc[nH]c3c2)cc1	-20.3
COc1ccc(NC(=O)c2ccc(CNc3c(NC4CCCCC4)c(=O)c3=O)cc2)c(OC)c1	0.0
CCOC(=O)N1CCN(C(=O)c2ccc(Cn3c(=S)[nH]c4cc(OCC)c(OCC)cc4c3=O)cc2)CC1	-16.6
COc1ccc(C(=O)n2nc(C)cc2Nc2ccccc2)cc1	-31.8
CCc1cc(=O)oc2cc(OC(C)C(=O)NCc3ccccn3)ccc12 (configuration not stated)	-13.4
Cn1ncc2c(O/N=C(\N)c3ccc(C(C)(C)C)cc3)ncnc21	-27.5
C=CCN1N=C(/C=C/c2ccccc2)CCC1=O	-21.1

4 compounds drawn at random from the list so far, as already listed:
SMILES	OX1R antag
CCCc1cc(=O)oc2cc(C)cc(OCC(=O)NCc3cccnc3)c12	-26.3
COc1ccc(C(=O)n2nc(C)cc2Nc2ccccc2)cc1	-31.8
C=CCN1N=C(/C=C/c2ccccc2)CCC1=O	-21.1
CCOC(=O)N1CCN(C(=O)c2ccc(Cn3c(=S)[nH]c4cc(OCC)c(OCC)cc4c3=O)cc2)CC1	-16.6

The listing continues.
SMILES	OX1R antag
Cc1ccc(Cc2ccc(C(=O)NNC(N)=S)o2)cc1	-7.8
NC(=O)C1CCN(C(=O)c2ccc3c(=O)n(Cc4ccco4)c(SCC(=O)c4ccc(F)cc4)nc3c2)CC1	-8.7
COc1ccc(C2C(C(=O)N3CCN(c4ccccc4)CC3)c3ccccc3C(=O)N2C)cc1 (configuration not stated)	-17.8
CC1CCC(NC(=O)c2ccc3snnc3c2)CC1 (configuration not stated)	-16.6
Cc1cc(C)c2c(n1)nn1c(C)c(CCC(=O)NCc3ccco3)c(C)nc21	-12.0
CCCCOC(=O)c1ccc(NC(=O)C(=O)NCCN(C)C)cc1	-8.2
Cc1ccc(CNC(=O)C2CCCN(S(C)(=O)=O)C2)cc1 (configuration not stated)	-14.8
O=[N+]([O-])c1ccc(C(O)C(CO)NC(=S)Nc2ccccc2)cc1 (configuration not stated)	-14.4
CC1=C(C(=O)OC(C)C)C(c2coc3ccccc3c2=O)C2=C(CCCC2=O)N1 (configuration not stated)	-23.5
CCOc1cc2c(cc1OCC)C(C(=O)O)C(c1cc(OC)c(OC)c(OC)c1)N(C)C2=O (configuration not stated)	-15.6
CCCN1CN(Cc2ccco2)c2nc3ccccc3n2C1	1.2
COc1ccc(NC2CCCN(C(=O)CCc3cccc(F)c3)C2)cc1 (configuration not stated)	-46.0
CCOC(=O)C1C(c2ccc(O)c(O)c2)NC(=S)NC1(O)C(F)(F)F (configuration not stated)	-8.1
CCC(=O)Nc1cccc(NC(=S)NC(=O)c2ccc(Cl)cc2)c1	-10.2
Cc1sc(NC(=O)c2ccc(=O)n(C)n2)nc1-c1ccccc1	-5.1
COc1cccc2c(=O)n(CC(=O)N3CCN(c4ccccc4)CC3)ccc12	-27.1
CCCn1c(NC(=O)c2ccccc2)nc2ccccc21	-40.5
CC(=C/c1ccc(C(C)C)cc1)/C=N/NC(=O)Cn1nc(C)cc1C	-25.4
COc1cc(-c2cccs2)cc(=O)c2c(C)oc(C)c12	-19.1
CCCC(=O)Nc1ccc(N2CCN(C(=O)c3cccs3)CC2)cc1	9.4

Some of these compounds in order of length of the SMILES, low to high.
SMILES	OX1R antag
CCCN1CN(Cc2ccco2)c2nc3ccccc3n2C1	1.2
Cc1sc(NC(=O)c2ccc(=O)n(C)n2)nc1-c1ccccc1	-5.1
CCCC(=O)Nc1ccc(N2CCN(C(=O)c3cccs3)CC2)cc1	9.4
CCC(=O)Nc1cccc(NC(=S)NC(=O)c2ccc(Cl)cc2)c1	-10.2
CC(=C/c1ccc(C(C)C)cc1)/C=N/NC(=O)Cn1nc(C)cc1C	-25.4
COc1cccc2c(=O)n(CC(=O)N3CCN(c4ccccc4)CC3)ccc12	-27.1

Further compounds follow.
SMILES	OX1R antag
CCOC(=O)Nc1ccc2c(C)cc(=O)oc2c1	-4.0
CCN(CCO)Cc1csc2cc(C)ccc12	-2.9
COC(=O)c1ccc(C(NC(=O)OCc2ccccc2)/C(F)=C/[C@@H](C)C(=O)NCc2ccc(OC)c(OC)c2)cc1 (some centres not stated)	-31.0
CCOC(=O)c1c(CS(=O)(=O)c2ccccc2)n(C)c2cc(Br)c(O)cc12	-18.4
C=CCNc1nc(Cl)nc(Nc2ccccc2)n1	-5.2
CC(Oc1ccc(F)cc1)C(=O)N(Cc1ccccc1)c1c(N)n(Cc2ccccc2)c(=O)[nH]c1=O (configuration not stated)	-23.3
CN(NC(=O)c1cccc(Cl)c1)c1nc(-c2ccccc2)nnc1C(F)(F)F	-27.6
CCOc1ccc2nc(NC(=O)CCC(=O)c3cccs3)sc2c1	-8.6
CCOC(=O)CCNC(=O)N1CCCC(C(=O)c2ccccc2SC)C1 (configuration not stated)	-10.5
CCc1noc(C)c1C(=O)N(C)CC(=O)Nc1ccc(OC)cc1	-10.8
COc1ccc(OCC(=O)NNc2nc3ccccc3s2)cc1	-27.4
CCOc1ccccc1Nc1nnc(SCC(=O)NC(=O)c2cccn2C)s1	-24.5
O=C(CNCCO)NC12CC3CC(CC(C3)C1)C2	-7.9
O=C(CSCc1ccc(Cl)cc1)Nc1nccs1	0.3
Cc1ccc(N2CC(C(=O)OCC(=O)c3ccc[nH]3)CC2=O)cc1 (configuration not stated)	0.2
CCOc1ccc(CCNC(=O)COC(=O)/C=C/c2cccc(OC)c2)cc1OCC	-17.6
CC(=O)/C(N=Nc1ccc(-n2ccc(C(F)(F)F)n2)cc1)=C(\C)O	-32.1
COc1cccc(/C=N/NC(=O)CSc2cccc3cccnc23)c1	12.3
O=C(C(=O)c1cccnc1)c1cccnc1	0.2
Cc1ccc(OCCn2cc(/C=C(\C#N)C(=O)NCC3CCCO3)c3ccccc32)cc1 (configuration not stated)	-7.7
O=C(O)C1C2CCC(O2)C1C(=O)Nc1ccc(O)cc1 (configuration not stated)	-11.1
CCOC(=O)c1c(C)oc2cc(Br)c(O)c(Br)c12	11.7
Cc1[nH]c(=O)[nH]c(=O)c1CSc1nnc([C@@H](NC(=O)OC(C)(C)C)C(C)C)o1	-26.1
CN(Cc1ccccc1)C(=O)COC(=O)C1=NNC(=O)CC1	6.2
CCOC(=O)Cn1c(C)c(C#N)c2ccccc21	-22.1
CN1CCN(CCC(=O)N/N=C/c2ccccn2)CC1	-18.1
O=C1Nc2ccccc2Nc2ccccc21	5.3
Cc1ccc(C2=CSC3=NNC4(CCCCC4)NN23)cc1	-11.9
OCc1ncc(-c2ccccc2)s1	-6.1
COc1cc(NS(=O)(=O)c2ccc(NC(=O)/C=C/C(=O)O)cc2)nc(OC)n1	-10.0
NC(=O)c1c(N)sc2c1CCCCC2	-5.1
Cc1c(C)n(CC(O)CN2C(=O)c3ccccc3S2(=O)=O)c2ccccc12 (configuration not stated)	-4.7
CC(C)OCC(O)CN1CCN(CC(O)COc2ccc3c(c2)OCO3)CC1 (configuration not stated)	-13.1
CCOc1ccc(NC(=O)c2cccs2)c([N+](=O)[O-])c1	-13.9
O=C(O)c1cc2c(s1)-c1ccccc1OC2	-1.4
CCCOc1ccc(/C=N/NC(=O)c2c(-c3ccccc3)noc2C)cc1OC	-24.7
O=C(O)CCNC(=O)/C(=C/c1ccco1)NC(=O)c1ccco1	-13.0
COC(=O)Cn1cc(C(=O)OC)cc(Br)c1=O	-11.1
Cn1c(=O)[nH]c(=O)c2c1nc(CN1CCN(c3cccc(Cl)c3)CC1)n2Cc1ccccc1Cl	-30.4
Cc1cccc(OCCNc2cc(N3CCN(CCO)CC3)ccc2[N+](=O)[O-])c1	-1.0
O=C(CN(Cc1ccccc1)C(=O)CCC(=O)Nc1ccccn1)NCCc1ccccc1	-15.8
COc1ccc(-n2c(Cc3cccn3C)nnc2SCC(=O)NCC2CCCO2)cc1 (configuration not stated)	-6.0
CCc1cc(=O)oc2cc(C)cc(OC(C)C(=O)NCCCn3ccnc3)c12 (configuration not stated)	-11.1
Cc1cc(CN(C)C(=O)c2cc(COc3ccc(C)c(C)c3)on2)on1	-21.2
Cc1ccc(-c2nnc(SCC(=O)Nc3nc4c(s3)CCCC4)n2C)cc1	-17.6
CC(C)OC(=O)CSc1nc(Cc2cccs2)nc2ccccc12	-24.2
CCOc1ccccc1N1CC(C(=O)Nc2cc(Cl)ccc2-n2cncn2)CC1=O (configuration not stated)	-13.3
CCn1cc(C(=O)NCc2cccnc2)c(=O)c2cc(F)c(N3CCN(C(=O)c4ccco4)CC3)cc21	-1.6
COc1ccc(CNC(=O)CSc2n[nH]c(C)c2[N+](=O)[O-])cc1	8.7
COc1cc(-c2nc(-c3ccc4c(c3)-c3ccccc3S4(=O)=O)c(-c3ccccc3)[nH]2)cc(OC)c1OC	-18.6
Following part.
SMILES	OX1R antag
CC(C)N(C)Cc1nnnn1CC(=O)NCCc1cccc(C(F)(F)F)c1	-19.4
N#CC1=C(N)C2=CCCC[C@H]2[C@H](c2ccccc2)C1(C#N)C#N	-8.5
COc1cc(/C=C/c2cccc[n+]2C)ccc1OCC(=O)Nc1ccccc1	5.6
Cc1ccc(OCC(=O)N/N=C\c2cn(C)c3ccccc23)c([N+](=O)[O-])c1	-7.9
Cc1ccc(S(=O)(=O)NC(CN2CCOCC2)=NCCNS(=O)(=O)c2ccccc2)cc1	-17.6
COc1ccccc1CNC(=O)CN(C)S(=O)(=O)c1cccc2cccnc12	-20.0
O=C(O)COc1ccc(/C=N/Nc2nc(Nc3ccccc3)nc(N3CCCCC3)n2)cc1	-21.6
COc1ccc(C)cc1NC(=O)CN1C(=O)COc2ccc(S(=O)(=O)N3CCOCC3)cc21	-20.3
O=C(COC(=O)c1ccccc1NS(=O)(=O)c1cccs1)NCC12CC3CC(CC(C3)C1)C2	-9.6
CCOc1cc(/C=N/NC(=O)Cc2ccc(C(F)(F)F)cc2[N+](=O)[O-])c(Br)cc1OC	-49.3
Cc1cc(-c2ccc(Cl)cc2)n2nc(C)cc2n1	-20.6
Cc1cc(-c2nn(-c3ccccc3F)cc2CN2CCN(c3ccccn3)CC2)c(C)s1	-49.4
COC(=O)CCC(=O)OC1(C)C(=O)C2=CN(C3CC3)C(c3ccc(OC)cc3)=CC2=C(Br)C1=O (configuration not stated)	-15.3
COc1ccc(NC(=O)CN(C)C(=O)c2ccc(N3CCCCC3)c([N+](=O)[O-])c2)cc1	-37.3
CCOc1ccc(CN(C(=O)c2oc3ccccc3c2C)C2CCS(=O)(=O)C2)cc1 (configuration not stated)	-11.2
Cc1cc2cc(C)c(SCC(=O)NCc3ccco3)nc2cc1C	-26.6
O=C(CSc1nnc(-c2cccnc2)n1Cc1ccccc1)NCc1ccccc1	-9.0
COC(=O)c1ccc(Nc2ncnc3sccc23)cc1	-16.3
Cc1cccc(C)c1NC(=S)NC(=O)CCc1ccccc1	-25.6
CN1CCN2c3ncccc3Cc3ccccc3[C@@H]2C1	-15.3
Cc1ccnc(SCCn2c(Br)nc3c2c(=O)[nH]c(=O)n3C)n1	3.0
COC(=O)[C@@H](NC(=O)c1ccccc1OC1CCN(S(C)(=O)=O)CC1)C(C)C	-23.4
O=C(CCCCn1c(=O)c2ccccc2n(CC(=O)NC2CCCC2)c1=O)NC1CCCC1	-2.5
O=C(CN(C(=O)c1csnn1)c1ccc2c(c1)OCCO2)NCc1ccccc1	-15.2
O=C1COc2ccc(C(=O)CSc3nnc(-c4cccs4)n3Cc3ccccc3)cc2N1	-18.1
O=C(/C=C/c1ccc2c(c1)OCO2)Nc1nc(-c2ccc(F)cc2F)cs1	2.2
CCc1ccc(NC(=O)Nc2ccncc2)cc1	-13.5
O=C(NCCN1CCOCC1)c1ccc2c(c1)N(Cc1ccc(F)cc1)C(=O)c1ccccc1S2(=O)=O	-12.8
CN(C)c1ccc(C(CNC(=O)c2ccccc2F)c2c[nH]c3ccccc23)cc1 (configuration not stated)	-29.8
CC(C)Cc1ccc(S(=O)(=O)Nc2ccc3[nH]c(=O)[nH]c3c2)cc1	-5.3
CC(Sc1nnc2ccccn12)C(=O)Nc1ccc2c(c1)OCO2 (configuration not stated)	-5.9
O=C(NCc1cccs1)C1CCN(C(=O)NCc2ccccc2)CC1	-22.4
CC1=CC(C)(C)N(S(=O)(=O)c2ccc(F)cc2)c2ccc(C)cc21	26.0
Cc1nc(C)c(-c2ccc(SCc3ccc(Cl)cc3)nn2)s1	-29.9
CC(C(=O)Nc1cccnc1)N1C(=O)C2C3C=CC(C3)C2C1=O (configuration not stated)	-11.1
Cc1ccc(C(=O)Oc2csc(=S)n2C(=O)c2ccc(C)cc2)cc1	4.6
Cc1ccc(CNS(=O)(=O)NCc2cccs2)cc1	-8.8
Cc1c(NS(=O)(=O)c2ccc(NC3CCCC3)c([N+](=O)[O-])c2)c(=O)n(-c2ccccc2)n1C	-3.7
CCOC(=O)C1CCCN(Cc2nc(N)nc(Nc3ccccc3)n2)C1 (configuration not stated)	-14.3
CCc1cc2c(NC(C(=O)O)C(C)C)ncnc2s1 (configuration not stated)	-1.9
Cc1ccc(NC(=O)C2CCN(C(=O)c3ccc(Cl)cc3)CC2)nc1	-11.1
CCCOc1ccc(C(=O)Nc2ccc(C)cc2[N+](=O)[O-])cc1	-0.9

Some of the compounds tested; most or all hits stand in other tables.
